Screening data (PubChem)
MenB inh – inhibitors of Mycobacterium tuberculosis MenB enzyme; P9WNP5; MenB enzyme assay, absorbance read-out; some hits fall short of the stated cut; inhibition, %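 (about 12 µg/mL by stock and volumes)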; actives 0.43% (n = 100,000); AID 540299;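 active = mean of two replicates above 30%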;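 note: 0% = no compound and 100% = wells with inactive enzyme; the first replicate is given; strong numbers were not always called active; inactives centre near -10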
Target sequence (P9WNP5 whole entry, looked up): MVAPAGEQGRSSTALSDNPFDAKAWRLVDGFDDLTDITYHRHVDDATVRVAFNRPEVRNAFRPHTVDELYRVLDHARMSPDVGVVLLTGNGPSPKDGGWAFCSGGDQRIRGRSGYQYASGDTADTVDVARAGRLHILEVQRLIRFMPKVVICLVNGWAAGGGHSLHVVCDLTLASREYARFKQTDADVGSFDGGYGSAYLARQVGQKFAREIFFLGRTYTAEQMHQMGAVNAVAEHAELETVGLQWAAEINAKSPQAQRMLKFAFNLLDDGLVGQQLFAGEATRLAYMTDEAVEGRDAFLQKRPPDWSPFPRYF
MbtI inh – blocks the Mycobacterium tuberculosis siderophore enzyme MbtI; P9WFX0; purified MbtI enzyme, fluorescence intensity read-out; inhibition, %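 (about 17 µg/mL by stock and volumes)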; actives 0.89% (n = 100,000);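 active = above 50% in both replicates, above 80% if mildly self-fluorescent; inactive = the rest, strongly fluorescent compounds included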;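 note: 0% = mean of negative and 100% = mean of positive controls; one replicate is shown; some compounds called inactive have numbers as strong as hits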
Polio RdRp inh – poliovirus RNA polymerase inhibition | actives 0.66% (n = 150,000) | poliovirus polymerase elongation, fluorescence polarization; stronger effect = lower value | AID 588519 | P03300 | % elongation, % (compound at 16.7 µg/mL); in the data active = % elongation below about 90%; note: some results filed as inactive read as strong as hits
Target sequence (P03300 1749-2209 limits assumed): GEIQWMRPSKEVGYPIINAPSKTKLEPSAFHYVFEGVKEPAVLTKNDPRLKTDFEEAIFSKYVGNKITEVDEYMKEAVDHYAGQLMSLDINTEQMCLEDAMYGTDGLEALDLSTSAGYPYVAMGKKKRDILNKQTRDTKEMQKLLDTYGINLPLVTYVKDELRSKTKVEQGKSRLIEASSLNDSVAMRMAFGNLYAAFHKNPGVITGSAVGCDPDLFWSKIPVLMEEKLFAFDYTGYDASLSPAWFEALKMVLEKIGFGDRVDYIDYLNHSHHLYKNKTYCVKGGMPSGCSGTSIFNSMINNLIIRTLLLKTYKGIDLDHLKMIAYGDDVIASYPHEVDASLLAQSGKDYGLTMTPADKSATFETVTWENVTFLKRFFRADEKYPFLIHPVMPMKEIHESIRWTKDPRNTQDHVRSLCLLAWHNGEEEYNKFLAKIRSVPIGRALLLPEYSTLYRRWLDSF
Polio RdRp inh intensity – second read-out of Polio RdRp inh, no call of its own (marks repeat the call); % elongation; measured here: total intensity read-out; formula for this scale not given here;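 total fluorescence in place of polarization; lower means less elongation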
* marks the source's active call; other numbers are inactive results; · = not tested or not shown. Hits appear at their usual frequency (roughly 1.7% active in at least one column).

molecule	Polio RdRp inh intensity	MbtI inh	Polio RdRp inh	MenB inh
N#C/C(=C\C=C\c1ccccc1)c1nc2ccccc2c(=O)[nH]1	136	0	103	-27
c1ccc2c(c1)c(NCc1ccc3c(c1)OCO3)nn1cnnc21	105	0	101	9
CN(C)c1ccc(/C=C/CN2CCSCC2)cc1	105	-456	101	8
Cc1ccc(-n2nc(C)cc2NC(=O)c2ccco2)cc1	97	-8	99	·
CC(CC(=O)NCc1ccccc1)S(=O)(=O)c1ccc2c(c1)NC(=O)CS2 (configuration not stated)	106	27	102	10
COc1ccc(-c2cc(C(N)=O)on2)c(OC)c1	103	-1	102	-67
O=C1NC(=Nc2ccc(F)cc2)CS1	93	78*	95	-35
CC(NS(=O)(=O)c1ccc(F)cc1)C(c1cccs1)N1CCN(c2ccccc2)CC1 (configuration not stated)	102	-5	102	-10
COC(=O)c1ccc(-c2ccco2)n1Cc1cccc(C)c1	103	72	104	-21
O=C(NC(Cc1ccccc1)C(=O)N1CCN(c2ncccn2)CC1)c1ccco1 (configuration not stated)	99	13	101	-33
C(=N\OCc1nc2c3cnn(-c4ccccc4)c3ncn2n1)/c1ccccc1	137	-4	136	4
CNc1nc(SCc2ccccc2)nc(N2CCOCC2)n1	101	-2	102	6
Cc1c(-c2ccccc2)oc2c(C(=O)OCCN3CCCCC3)cccc2c1=O	100	-3	99	0
CC1CCCC(n2c(=S)[nH]c3ccccc3c2=O)C1C (configuration not stated)	100	2	102	-19
CCC(C)c1ccc(OCCCN2CCN(C)CC2)cc1 (configuration not stated)	104	-11	104	7
O=C(OCc1ccc(-c2cc(C(F)(F)F)cc(C(F)(F)F)c2)o1)c1cccs1	92	19	101	-13
O=c1n(Cc2ccccc2)nc2n1-c1ccccc1SC2	99	-2	99	-12
Cc1cccc(C)c1N1C(=O)CN(C(C)C)C1=S	93	8	104	11
COc1cccc(NC(=O)C(C)N2CCc3ccccc32)c1 (configuration not stated)	105	5	108	-13
CN(C(=O)CSc1nnc(Nc2ccccc2F)s1)C1CCCCC1	99	10	103	-2
CC(C)C(C(=O)NCc1ccco1)c1ccc(Cl)cc1 (configuration not stated)	103	-11	105	6
CCCCCCSc1nc(O)c(CC)c(=O)n1-c1ccccc1	102	-2	101	-30
CC(C)=CCCC1(C)C=Cc2c(O)c3c(c(CC=C(C)C)c2O1)OC12C(=CC4CC1C(C)(C)OC2(C/C=C(/C)C(=O)O)C4=O)C3=O (configuration not stated)	100	9	100	0
CCn1c(C)nnc1SCC(=O)Nc1cccc(Cl)c1	99	-8	98	-6
Oc1ccc(-c2n[nH]c(=S)n2CC2CCCO2)cc1 (configuration not stated)	102	14	100	18
COc1ccc(O)c(C(=O)c2cnc(Nc3nc(C)c4ccccc4n3)nc2)c1	112	25	148	-30
Clc1ccc(-n2ncc3c2ncn2nc(-c4ccccc4)nc32)cc1	105	4	102	-2
O=C(NC12CC3CC(CC(C3)C1)C2)C1CCC1	100	-4	98	·
CCC(=O)Oc1ccc(NC(=O)CSCc2ccccc2)cc1	103	-14	100	5
COc1ccccc1C(=O)Nc1ccc(N2CCCCC2)cc1	103	-3	101	-9
COc1cccc2cc(-c3cn(-c4ccc(F)c(F)c4)c(=S)[nH]3)c(=O)oc12	109	-3	103	2
NC(=S)N/N=C/c1cn(-c2ccccc2)nc1-c1cccnc1	105	7	103	-56
Cc1ccc(C(=O)Nc2ccc3ccccc3n2)cc1	119	4	104	1
O=C(N/N=C/C=C/c1ccccc1)NC1CCCCC1	106	2	107	-15
CCOC(=O)CSc1nc(-c2ccccc2)nc2c1oc1ccccc12	102	-1	100	5
CC(CC(=O)O)CC1=NS(=O)(=O)c2ccccc2N1 (configuration not stated)	102	14	101	1
OC(CN1CCN(c2nc3ccc(Cl)cc3s2)CC1)Cn1ccc2ccccc21 (configuration not stated)	101	5	105	-12
CC1CCN(CCNS(=O)(=O)c2ccc3c(c2)CCCC(=O)N3)CC1	104	-20	104	-24
O=C(NCCCN1CCCCC1)c1ccc(-n2ccc3ccccc32)s1	102	-164	100	-23
O=C(CC1Oc2ccccc2NC1=O)NCCCN1CCN(C2CCCCC2)CC1 (configuration not stated)	103	0	102	14
NC12CC3CC(C1)CC(CC(=O)O)(C3)C2	103	8	101	-8
O=C(CCSc1nnnn1-c1ccccc1)N1CCOCC1	104	-12	102	-30
CCOC(=O)Cc1csc(SCC(=O)N2c3ccccc3NC(=O)C2(C)C)n1	103	6	100	-6
O=C1/C(=C/c2cccs2)SC(=S)N1CCCN1CCOCC1	·	7	·	-29
CCCCn1c(=S)[nH]c2c1c(=O)[nH]c(=O)n2C	105	30	102	9
COC(=O)c1ccc(CS(=O)(=O)c2ccc(Br)cc2)o1	101	13	100	5
S=C(N=S(c1ccccc1)c1ccccc1)Nc1ccccc1	97	·	98	-25
CC(C)C(NC(=O)c1ccco1)C(=O)Nc1sc2c(c1C(N)=O)CCC2 (configuration not stated)	97	66	95	-83
CCc1ccc(N2C(=O)CC(Sc3nnc(N)s3)C2=O)cc1 (configuration not stated)	99	101*	101	4
CCOC(=O)c1cnc(C(C)(C)C)[nH]c1=O	104	-1	100	-4

Part of the list above, as labelled records:
O=C(CCSc1nnnn1-c1ccccc1)N1CCOCC1
  Polio RdRp inh intensity: 104	MbtI inh: -12	Polio RdRp inh: 102	MenB inh: -30
CCOC(=O)c1cnc(C(C)(C)C)[nH]c1=O
  Polio RdRp inh intensity: 104	MbtI inh: -1	Polio RdRp inh: 100	MenB inh: -4

(more compounds)
molecule	Polio RdRp inh intensity	MbtI inh	Polio RdRp inh	MenB inh
CCOC(=O)c1[nH]c(=O)[nH]c1Cn1nc(C)cc1C	106	·	99	-15
CC1(C)CC(=O)C=C(N2CCNCC2)C1	103	24	103	-19
CCOC(=O)/C(C#N)=N\Nc1ccccc1OC	105	-11	104	-24
CCN1C(=O)CC(NC2CCN(C(=O)c3ccc(F)cc3)CC2)C1=O (configuration not stated)	104	-10	101	-15
Cc1nn(Cc2ccccc2)c(C)c1C(=O)NCCN1C(=O)S/C(=C\c2cccs2)C1=O	98	12	97	-12
COC(=O)/C=C1\SC(=O)NC1=O	98	-1	97	6
COC(=O)c1ccccc1NC(=O)Cn1ncc2c(=O)oc3ccccc3c21	102	-2	103	-18
N#Cc1c2n(c3c(=O)[nH]cnc13)CCCC2	101	-1	102	-52
CN(C)c1ccc(/C=C2\C(=O)NC(=O)N(C3CCCC3)C2=O)o1	181	18	118	-107
O=C(NCCCN1CCOCC1)C1CCN(C(=O)c2cnn(-c3ccccc3)c2-n2cccc2)CC1	104	-12	101	-11
CC(C)c1ccc(NC(=O)COn2nnc3ccccc32)cc1	97	-3	99	·
Cc1noc2ccccc12	110	10	106	-18
Cc1cc(C)n(-c2nc3cc(Cl)ccc3nc2NCc2ccc3c(c2)OCO3)n1	101	4	101	10
O=C(O)C1CCN(c2ncnc3sccc23)CC1	102	-8	103	0
CC[C@H]1CN2CCc3cc(OC)c(OC)cc3C2C[C@@H]1CC1NCCc2cc(OC)c(OC)cc21 (some centres not stated)	114	-6	97	1
C/C(=N\NC(=O)C1CC1(C)c1ccccc1)c1ccco1 (configuration not stated)	100	6	104	-31
CCOC(=O)Cc1csc(C)n1	105	0	99	·
Cc1ccc(Nc2nc(CSc3nnnn3Cc3cccs3)cs2)cc1	100	6	106	-42
CCn1nnc(-c2ccccc2N)n1	103	2	103	-20
CCN1CCSc2ccc(C(=O)NCCC(C)C)cc21	101	116	100	-9
C=CCSc1nnc(NC(=O)CN(C)S(=O)(=O)c2ccc(Cl)cc2)s1	107	-30	105	3
CCN(C(=O)Cn1ncc(Cl)c(Cl)c1=O)c1ccccc1	89	19	93	-38
O=C(CSc1ccc(Cl)cc1)Nc1cccc(Cl)c1	112	·	107	-2
Cc1ccc2cc3cc(C(=O)NCC4(c5ccccc5)CCCC4)oc3nc2c1	102	-2	103	-5
S=c1nc2c(cnn2-c2ccccc2)c(Nc2ccccc2)[nH]1	107	-16	105	-18
c1cc2c(cc1-c1nnc(NC3CCCCC3)o1)OCO2	91	104	99	-18
C=CCn1c(SCc2ccccc2C#N)nc2scc(-c3cccs3)c2c1=O	106	1	97	13
O=C(N/N=C/c1ccco1)c1cccc(NC(=O)c2cccc(Cl)c2)c1	102	15	103	-10
Cc1cccc(CN2CCN(CC(=O)O)C2=O)c1	98	-8	103	-18
Cc1cc(C)cc(N2C(=O)N(CC(=O)N3CCOc4ccc(C)cc43)C3CS(=O)(=O)CC32)c1 (configuration not stated)	102	4	100	-22
Cc1onc(-c2c(Cl)cccc2Cl)c1C(=O)NC(=S)N1CCOCC1	113	-13	107	-24
O=C(COC(=O)/C=C/c1ccco1)Nc1ccccc1	96	-2	99	·
CCOc1c(Cl)cnn(-c2ccccc2)c1=O	101	-5	103	-16
COc1ccc2c(c1)O/C(=C\c1cccc(OC(=O)N3CCOCC3)c1)C2=O	110	10	98	-15
COC(CNc1ncnc2c1c(-c1ccccc1)cn2-c1ccc(C)cc1)OC	104	5	99	-10
CCSc1nnc(SCc2cc(=O)oc3cc(OC)ccc23)s1	120	6	107	-17
O=c1oc2c3c(ccc2c2c1CCCC2)OCN(c1ccc(F)cc1)C3	103	9	101	6
COc1ccc(C(=N/O)/C(=N/O)c2ccc(OC)cc2)cc1	101	-17	100	-12
O=C(COc1ccc(Br)cc1)Nc1ccccc1N1C(=O)c2ccccc2C1=O	110	·	100	-7
N#Cc1cc(C(=O)c2cccs2)c2nc3ccccc3n2c1N	238	-6	43	-31
Cc1ccc(-n2cc(-c3ccccc3)c3c(NN4CCOCC4)ncnc32)cc1Cl	108	-4	102	-2
NC(=O)C1CCN(C(=O)CN(Cc2ccccc2)S(=O)(=O)c2ccccc2)CC1	94	-3	98	-29
c1ccc2sc(C3CCCNC3)nc2c1 (configuration not stated)	110	-9	105	-10
CC1CCCC(C)N1C(=O)COC(=O)c1cccs1 (configuration not stated)	106	-10	102	·
Nc1nc(C(=O)N2CCOCC2)nn1S(=O)(=O)c1ccc(Cl)cc1	101	20	102	-7
COc1ccccc1NNC(=O)C1CCCCC1	102	-4	103	-14
Cc1cccc2nc(Cn3c(=O)n(CCC(=O)NCc4ccco4)c(=O)c4ccccc43)cc(=O)n12	103	8	101	-4
CCCCN1C(=O)/C(=C2\SC(N3CCOCC3)=NC2=O)c2ccccc21	104	-3	102	12
COc1ccc(/C=N/NC(=O)CSc2nc3ccccc3o2)cc1OC	103	0	104	-2
CC(C)(C)C(=O)n1cc2c(n1)-c1cc(Cl)ccc1SC2	109	7	98	7

2 of these compounds in a different format.
> Nc1nc(C(=O)N2CCOCC2)nn1S(=O)(=O)c1ccc(Cl)cc1
  Polio RdRp inh intensity = 101
  MbtI inh = 20
  Polio RdRp inh = 102
  MenB inh = -7
> Cc1ccc(-n2cc(-c3ccccc3)c3c(NN4CCOCC4)ncnc32)cc1Cl
  Polio RdRp inh intensity = 108
  MbtI inh = -4
  Polio RdRp inh = 102
  MenB inh = -2

(next part)
molecule	Polio RdRp inh intensity	MbtI inh	Polio RdRp inh	MenB inh
CCN(CC)CCCOc1cccc2ccccc12	107	·	103	5
C=CCn1c(CCSCc2ccc(OC)cc2)n[nH]c1=S	101	35	102	-75
CC(C)NCc1nnc(-c2ccccc2Cl)o1	·	-5	·	-1
CC(=O)Oc1ccccc1C(=O)N1CC(C)OC(C)C1 (configuration not stated)	101	1	100	33
O=S(=O)(Cc1ccc(Cl)cc1)CC(O)COc1ccc(F)cc1 (configuration not stated)	102	-5	102	-9
Cn1ccnc1SCC(=O)c1ccc(NS(C)(=O)=O)cc1	106	10	102	-27
O=C1C2CC=CCC2C(=O)N1CN(Cc1ccccc1)Cc1ccccc1 (configuration not stated)	103	-1	100	9
CC(NC(=O)C1CC1)c1ccncc1 (configuration not stated)	100	6	101	-19
Cc1ccc(NC(=S)N2CCC(N(C)CCN3CCOCC3)CC2)cc1C	97	-1	103	3
CC1(C)CC(=O)C2=C(C1)OC(N)=C(C#N)C21CCCCC1	101	0	101	-15
O=C(O)c1ccsc1	105	-5	101	-22
CCOc1ccc(Nc2cnnc(Nc3ccc(OCC)cc3)n2)cc1	107	-10	100	-26
CCSc1nsc(SCC)c1C(N)=O	100	·	103	-6
O=C(NC1CCCCCC1)c1ccc2c(c1)OCO2	102	2	102	-5
N#Cc1nc(-c2ccccc2)cc(-c2ccccc2)n1	101	68	99	-31
CC(C)Cc1ccc(C(=O)C(C)N2CCN(c3ccc(C(F)(F)F)cn3)CC2)cc1 (configuration not stated)	95	7	103	2
O=C(/C=C/c1ccccc1)OCC1COc2ccccc2O1 (configuration not stated)	107	-6	104	·
COc1cc2c(cc1OC)C(C(=O)N1CCCCCC1)C1c3ccccc3CCN1C2=O (configuration not stated)	102	8	98	-2
COc1ccc2c(c1)n1nnnc1c1nnnn21	107	118	103	-17
O=C(O)/C=C/C(=O)NC1CCCCC1NC(=O)/C=C/C(=O)O (configuration not stated)	102	-18	102	-23
